# VACV Venus inh: qHTS for Stage-Specific Inhibitors of Vaccinia Orthopoxvirus: Venus Reporter Primary qHTS; AID 720580, 2013; Vaccinia virus Venus reporter expression, fluorescence; 330,000 tested, 0.46% active; Potency, µM (series often up to 36.5 µM), for the others: at the top dose activity change, negative = inhibition, most hits filed as inhibitors; active means well fitted inhibition curve with a large enough effect; inconclusive means small, poorly fitted or top-dose-only effect; inactive means no such curve, though single readings can be large or run the other way; tested in A549 cells; also: nearly all actives have a fitted effect of over 30% in size; inactives centre near -10
# VACV mCherry inh: qHTS for Stage-Specific Inhibitors of Vaccinia Orthopoxvirus: mCherry Reporter Primary qHTS. Potency, µM (series often up to 36.5 µM), inactives show top-dose activity change, negative = inhibition, actives largely listed as inhibitors. Vaccinia virus mCherry reporter infection, fluorescence; about a quarter of the inactives have no number. 310,000 tested, 0.63% active; active = well fitted inhibition curve with a large enough effect; inconclusive = small, poorly fitted or top-dose-only effect; inactive = no such curve, though single readings can be large or run the other way; tested in A549 cells; also: nearly all actives have a fitted effect of over 35% in size; inactives centre near -10
# An asterisk follows results filed as active; i = inactive; ? = inconclusive; . = no result given; [ ] = dose if it differs, or a comment. % is scaled to controls: 0 for no effect and ±100 for the full control effect; potency is read from the fitted curve at half-maximal effect. An unsorted share of the library, and some 0.86% of all compounds hit somewhere here.
# Second line of a record: VACV Venus inh | VACV mCherry inh
COc1ccc(CNC(=O)C(C)N(Cc2ccccc2OC)C(=O)c2snc(C(N)=O)c2N)cc1 (stereo not given)
→ 3% | -9%
O=c1c(=Nc2ccccc2O)c(=O)c2ccccc12
→ 3% | -10%
O=C(O)C(Cc1ccc(Cl)cc1)NS(=O)(=O)c1ccc(Cl)cc1 (stereo not given)
→ -10% | -3%
CN=C(c1ccc(C)cc1)n1c(=S)nc(-c2ccc(C)cc2)n(C)c1=S
→ 1% | 0%
O=C(C[C@@H]1C/C=C\CC[C@@H](Cc2ccc(F)cc2)C(=O)OC[C@@H]2CCCN2C1=O)NCCO
→ -9% | 0%
CCC(C)Sc1nc2c(c(=O)n1C)SC(C)C2 (stereo not given)
→ -10% | -7%
Cc1[nH]c(=O)[nH]c(=O)c1S(=O)(=O)N(C)Cc1ccccc1
→ -10% | -6%
O=C(NCc1ccccn1)c1cc(-c2ccc(Br)cc2)nc2ccccc12
→ -11% | -1%
CN(C(=O)CC1C(=O)NCCN1Cc1ccc(F)c(F)c1)C1CCOCC1 (stereo not given)
→ -14% | -3%
CC#CC[N+](C)(C)CCCCCCCCCC
→ -9% | i
CCNC(=S)N1CCCC(c2nc3ccc(C)cc3[nH]2)C1 (stereo not given)
→ -16% | i
CC(C)N1C[C@@H](Sc2ccccn2)C[C@H]1C(=O)Nc1ccc2c(c1)Nc1ccccc1CC2
→ 7% | -10%
Clc1cccc(CNCCc2c[nH]c3ccccc23)c1
→ -13% | -21%
N/C(Cn1cncn1)=N\NC(=O)C(=O)Nc1cccc(C(F)(F)F)c1
→ -4% | 0%
COc1ccc(-c2noc(CN(C)C(=O)c3ccc4c(c3)OCO4)n2)cc1OC
→ -1% | -8%

# As a short view, seven of the compounds above:
# Second line of a record: VACV Venus inh | VACV mCherry inh
CN(C(=O)CC1C(=O)NCCN1Cc1ccc(F)c(F)c1)C1CCOCC1 (stereo not given)
→ -14% | -3%
CC#CC[N+](C)(C)CCCCCCCCCC
→ -9% | i
CCNC(=S)N1CCCC(c2nc3ccc(C)cc3[nH]2)C1 (stereo not given)
→ -16% | i
CC(C)N1C[C@@H](Sc2ccccn2)C[C@H]1C(=O)Nc1ccc2c(c1)Nc1ccccc1CC2
→ 7% | -10%
Clc1cccc(CNCCc2c[nH]c3ccccc23)c1
→ -13% | -21%
N/C(Cn1cncn1)=N\NC(=O)C(=O)Nc1cccc(C(F)(F)F)c1
→ -4% | 0%
COc1ccc(-c2noc(CN(C)C(=O)c3ccc4c(c3)OCO4)n2)cc1OC
→ -1% | -8%

# Next compounds follow:
# Second line of a record: VACV Venus inh | VACV mCherry inh
CC1(Cc2cccc(C(F)(F)F)c2)C(=O)Nc2ccc(-c3ccc(F)c(Cl)c3)cc21 (stereo not given)
→ -9% | i
COc1cc(OC)c2c(OC)c(-c3ccc4c(c3)OCO4)c(=O)oc2c1
→ -2% | -5%
COc1ccc(NC(=O)C2(C)Cc3c(-c4ccc(N(C)C)cc4)ccnc3O2)cn1 (stereo not given)
→ ? | -17%
O=C(O)c1cccc(-n2cccc2/C=C2\SC(=O)N(Cc3ccccc3F)C2=O)c1
→ -11% | -11%
COC(=O)c1c(NS(C)(=O)=O)sc2c1CCCC2
→ -9% | i
S=C(NCc1ccc2c(c1)OCO2)NCc1ccco1
→ 2% | -10%
CC(=O)Nc1cccc(NC(=O)CSc2nn3c(=O)c(C)nnc3s2)c1
→ -6% | -3%
Nc1c(-c2ccc3c(c2)OCCO3)oc2ccccc2c1=O
→ -17% | -21%
CC1CCC(NC(=O)c2ccc(S(C)(=O)=O)cc2)CC1 (stereo not given)
→ 5% | i
COc1cc(/C=C(/C#N)c2nc3ccccc3[nH]2)ccc1OC(=O)c1ccco1
→ 14% | -30%
COc1ccccc1NC(=O)C1=C(C)Nc2nnnn2C1c1ccc(C(F)(F)F)cc1 (stereo not given)
→ 2% | -3%
CCC(=O)Nc1cc(-c2cn3cccnc3n2)ccc1OC
→ -14% | -10%
O=C(CCCn1cncn1)N1CCCC(N2CCN(c3ccc(F)cc3)CC2)C1 (stereo not given)
→ -9% | i
COCCN1CCN(C(=O)c2ccc3oc(CCc4ccccc4)nc3c2)CC1
→ -15% | -24%
O=C(O)c1cc(-c2ccccc2)nn1Cc1ccccc1
→ 2% | -8%
O=C1C(=Cc2cccn2-c2ccc(O)cc2)C(=O)c2ccccc21
→ 48%[activator] | .
Cc1cc2ncn(CCC(=O)NC(C)(C)C)c2cc1C
→ -5% | i
COCCN(Cc1ccc(OC)cc1)c1c(C)nc2ccc(C(=O)NCCc3c[nH]c4ccccc34)cn12
→ -21% | ?
COCCNC(=O)C1CCCN(C(=O)c2ccc3sccc3c2)CC1 (stereo not given)
→ -4% | 11%
O=C1CC(c2ccccc2F)c2cc3c(cc2N1)CCC3 (stereo not given)
→ ? | ?
Cc1cnc(NS(=O)(=O)c2ccc(N)cc2)nc1-c1ccccc1O
→ -16% | i
COc1ccccc1N1CCN(C(CNC(=O)C(=O)NCCCN(C)C)c2cccnc2)CC1 (stereo not given)
→ -6% | -10%
CCN1C(=O)C(CC(=O)Nc2ccc(OC)cc2)N(CCc2ccccc2F)C1=S (stereo not given)
→ -28% | -6%
CCOc1cc(C)c(Cl)cc1S(=O)(=O)NC1CC(C)(C)NC(C)(C)C1
→ -13% | -12%
CCCCC(=O)O[C@]1(C(=O)CO)CC[C@H]2[C@@H]3CCC4=CC(=O)CC[C@]4(C)[C@H]3[C@@H](O)C[C@@]21C
→ -15% | -1%
CCN(CC)c1ccc(NC(=O)CC2Oc3ccccc3NC2=O)c(C)c1 (stereo not given)
→ -18% | 8%
COc1cccc(OCc2cc(C(=O)N3CCN(c4ccccc4O)CC3)no2)c1
→ -2% | ?
Cc1oc2ccc(O)c(CN(C)Cc3ccccc3)c2c1C(=O)Nc1cccc(C(F)(F)F)c1
→ ? | -9%
Cc1ccc2c(=O)cc(C(=O)Nc3sc4c(c3C(=O)NCC3CCCO3)CCCC4)oc2c1C (stereo not given)
→ -2% | 3%
CCOc1ccc(CC(=O)C2C(=O)CCCC2=O)cc1OCC
→ -14% | .
O=C(CC(c1ccc(F)cc1)c1ccco1)N1CCCC1 (stereo not given)
→ -13% | -28%
CN(C)c1ccc(C(=O)NC2(N3CCC3=O)CCCC2)cc1
→ -14% | -26%
COc1ccc(CNC(=O)c2cccc3c(-c4cccnc4)coc23)cc1OC
→ ? | -26%
Cc1nn(-c2ccccc2)c(C)c1C(=O)NCc1ccccc1F
→ -4% | 46%[activator]
C=CCc1cccc(C=Nc2cccn3cc(-c4ccccc4)nc23)c1O
→ -1% | ?
Nn1c(SCc2cccc(Cl)c2)nnc1-c1ccncc1
→ -5%[7.34 µM] | i[7.34 µM]
O=C(NC1CCCCC1)C(c1ccc(F)cc1)N(CCc1ccccc1)C(=O)CN1C(=O)c2ccccc2S1(=O)=O (stereo not given)
→ -11% | -13%
COc1ccc(CNC(=O)c2ccc(NC(=O)N3CCSc4ncccc43)cc2)c(OC)c1
→ -4% | -2%
CC(=O)c1ccc(C(=O)N(CCN(C)C)c2nc3c(Cl)cccc3s2)cc1
→ -6% | -8%
N#Cc1cccc(OCC(=O)NC(=O)NCc2ccccc2)c1
→ 1% | 0%
COc1ccc(-c2ccc(NS(=O)(=O)c3cc(C)c(C)cc3C)cc2)nn1
→ -9% | -17%
CC1CCN(S(=O)(=O)c2nnc(NC(=O)COc3ccccc3F)s2)CC1
→ -13% | -11%
O=C(COC(=O)/C=C/c1ccc(F)cc1)Nc1ccc2[nH]c(=O)[nH]c2c1
→ -20% | i
CN(C)c1ccc(/C=C/c2ccnc3ccc(N)cc23)cc1
→ 29% | ?
Cc1cccc(-c2cc(NC(=O)C(C)(C)C)n(-c3ccccc3)n2)c1
→ -11% | -9%
COc1cccc2cc(C(=O)OCc3ccccc3)c(=O)oc12
→ -13% | i
Cc1noc(C)c1S(=O)(=O)N(C)C[C@H]1OCc2cn(nn2)CCCC(=O)N([C@@H](C)CO)C[C@@H]1C
→ -17% | -7%
CC(C(=O)O)N1C(=O)/C(=C/C=C/c2ccco2)SC1=S (stereo not given)
→ 17% | .
CCc1ccccc1NC(=O)CSc1n[nH]c(C)c1[N+](=O)[O-]
→ -11% | -17%
Cc1ccc(N2CC(C(=O)OCC(=O)c3ccc(F)cc3)CC2=O)cc1 (stereo not given)
→ -7% | i
Cc1ccccc1-n1c(-c2csc3ccccc23)n[nH]c1=S
→ -11% | -21%
Cc1ccc(CN2C(=O)CSCC2(C)C(=O)Nc2c(C)cccc2C)cc1 (stereo not given)
→ 10% | -15%
CN=C1C=C/C(=N/N=c2\ccn(O)cc2C)C=C1C
→ -15% | -28%
COc1ccc(C(=O)NCc2c(CC(C)C)oc(C)c2C(=O)O)cc1
→ -9% | -15%
O=C(CSc1cn[nH]n1)Nc1ccccc1C(F)(F)F
→ -4% | 5%
COc1ccc(N2CCC(CNC(=S)Nc3cccc(C)c3)C2)cc1 (stereo not given)
→ -17% | -26%
CC1CCN(S(=O)(=O)c2ccc(NC(=O)C3CSC4(C)CCC(=O)N34)cc2)CC1 (stereo not given)
→ -13% | -23%
CC1CCCCN1C(=O)Cn1c(=O)n(-c2ccc(F)cc2)c(=O)c2sccc21 (stereo not given)
→ 6% | -7%
CCN1C(c2ccc(F)cc2)=CS/C1=C(\C#N)c1nnc2n1-c1ccccc1SC2
→ -21% | -5%
CC(C)n1c(=O)c2ccccc2n1Cc1cn(-c2ccccc2)nn1
→ -3% | -8%

# Later entries
# Second line of a record: VACV Venus inh | VACV mCherry inh
COc1ccc(F)cc1S(=O)(=O)NCCCn1ccnc1
→ -5% | -3%
CCOC(=O)c1ccc(NCc2nc3ccccc3n2C)cc1
→ -20% | -11%
Cc1nc(C)c(-c2csc(Nc3ccc(Cl)cn3)n2)s1
→ ? | ?
O=C(COC(=O)c1cnccn1)c1ccc(C2CCCCC2)cc1
→ 8% | -13%
Cc1cccc(-n2c(O)c(/C=N/NC(=O)c3ccccc3Cl)c3ccccc3c2=O)n1
→ -3% | -13%
CCCC(=O)NC(NC(=S)Nc1c(C)n(C)n(-c2ccccc2)c1=O)C(Cl)(Cl)Cl (stereo not given)
→ -16% | .
O=C1CN(C(=O)Cc2ccc(F)cc2)C(c2ccccc2)c2cc(Cl)ccc2N1 (stereo not given)
→ -3% | -8%
COc1cc(C2CC(=O)Oc3cc(OC)c(OC)c(OC)c32)cc(OC)c1OC (stereo not given)
→ 0% | i
O=C(c1nn2cccnc2c1Cl)N1CCN(c2ccccc2)CC1
→ -1% | .
Cn1cc(SCC(N)=O)c2ccccc21
→ 11% | i
CCOc1ccc(N2CC(c3nc4ccccc4n3CCCCOc3ccc(OC)cc3)CC2=O)cc1 (stereo not given)
→ -18% | -21%
CCCn1c(SCC(=O)NCCc2ccc(OC)c(OC)c2)nc2c1c(=O)n(C)c(=O)n2C
→ -12% | -3%
Cc1ccnc(SCC(=O)c2ccc(Br)cc2)c1C#N
→ -20% | -4%
CN(CCC1CCCCO1)C(=O)CCc1nnc(Cc2c[nH]c3ccccc23)o1 (stereo not given)
→ -5% | -16%
Cc1ccc(N2CC(C(=O)Nc3ccc(S(=O)(=O)N4CCCC4)cc3)CC2=O)cc1C (stereo not given)
→ 0% | -11%
O=[n+]1c2c(n([O-])c3c1CCCC3)CCCCC2
→ -10% | .
Cc1nn(-c2ccccc2)c(C)c1/C=N\NS(=O)(=O)c1ccc(Cl)cc1
→ 6% | .
CCN(CC(=O)Nc1ccc(NC(C)=O)cc1)C(=O)/C=C/c1ccco1
→ 0% | -11%
O=C(N[C@@H]1CCC(=O)N(CC[C@H](Oc2ccccc2)c2ccccc2)CC1)OCc1ccccc1
→ ? | i
Cn1nc(C(C)(C)C)cc1C(=O)N1CCC(C)(C(=O)NS(=O)(=O)C2CC2)C1 (stereo not given)
→ -12% | 1%
CC1=C(C(=O)N(C)C)CC(CC(=O)NCCCN(C)C)C(=O)N1Cc1ccc(C(C)(C)C)cc1 (stereo not given)
→ -14% | -2%
C=C(C)CN1CCN(S(=O)(=O)c2ccc(C)c(N(C)S(=O)(=O)c3ccc(C)cc3)c2C)CC1
→ -19% | -23%
COc1ccc(N(C)S(=O)(=O)c2cccc(C(=O)NCC(c3cccs3)N(C)C)c2)cc1 (stereo not given)
→ -11% | -24%
COc1ccc(Cl)cc1NC(=O)NCc1cccnc1
→ -12% | -14%
O=C(OCC#CCSc1nnc(-c2ccccc2)o1)c1ccco1
→ ? | ?
CC1Cc2ccccc2N1C(=O)COC(=O)c1c2c(nc3ccccc13)CCCCC2 (stereo not given)
→ ? | ?

# Whole records as entered above. Screens in order: VACV Venus inh, VACV mCherry inh
# Profile of CCN(CC(=O)Nc1ccc(NC(C)=O)cc1)C(=O)/C=C/c1ccco1 : 0%, -11%
# Profile of Cc1nn(-c2ccccc2)c(C)c1/C=N\NS(=O)(=O)c1ccc(Cl)cc1 : 6%, .
# Profile of O=C(N[C@@H]1CCC(=O)N(CC[C@H](Oc2ccccc2)c2ccccc2)CC1)OCc1ccccc1 : ?, i
# Profile of O=[n+]1c2c(n([O-])c3c1CCCC3)CCCCC2 : -10%, .
# Profile of Cn1nc(C(C)(C)C)cc1C(=O)N1CCC(C)(C(=O)NS(=O)(=O)C2CC2)C1 (stereo not given) : -12%, 1%

# Quoted from the listing.
# CC1=C(C(=O)N(C)C)CC(CC(=O)NCCCN(C)C)C(=O)N1Cc1ccc(C(C)(C)C)cc1 (stereo not given) in VACV mCherry inh = -2%
# CCN(CC(=O)Nc1ccc(NC(C)=O)cc1)C(=O)/C=C/c1ccco1 in VACV Venus inh = 0%

# Bioassay records: PubChem, National Center for Advancing Translational Sciences (NCATS)
